RanGTP-Imp inh – disruptors of Ran-importin-beta complex formation – biochemical, FRET, CFP-Ran, YFP-importin-beta, homogeneous, primary screen; cell-free CFP-Ran/YFP-importin-beta FRET ratio; inhibition, % (concentration not given with the values); 300,000 tested, 1.1% active; AID 2216;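 active = most replicates above 15%; inconclusive = exactly half above 15%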;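 also: 0% = DMSO wells and 100% = Ran loaded with GDP instead of GTP; wells of about 40 µL received 100 nL stock; the first replicate is given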
Beta2AR agonist – agonists of human beta-2 adrenergic receptor inducing internalization; P07550; 340,000 tested, 0.43% active; response, % (test concentration not listed); Am2.2-beta2AR cells, FAP receptor internalization, flow cytometry; reference of the scale not given here;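 active = response above a set limit, near 3 SD of response in nonfluorescent compounds, cut at about 42% in these data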;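 also: stock transfer was 100 nL into about 11 µL; a reference agonist was the positive control; negative values mostly stem from fluorescent compounds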
Target sequence (P07550 whole entry, looked up): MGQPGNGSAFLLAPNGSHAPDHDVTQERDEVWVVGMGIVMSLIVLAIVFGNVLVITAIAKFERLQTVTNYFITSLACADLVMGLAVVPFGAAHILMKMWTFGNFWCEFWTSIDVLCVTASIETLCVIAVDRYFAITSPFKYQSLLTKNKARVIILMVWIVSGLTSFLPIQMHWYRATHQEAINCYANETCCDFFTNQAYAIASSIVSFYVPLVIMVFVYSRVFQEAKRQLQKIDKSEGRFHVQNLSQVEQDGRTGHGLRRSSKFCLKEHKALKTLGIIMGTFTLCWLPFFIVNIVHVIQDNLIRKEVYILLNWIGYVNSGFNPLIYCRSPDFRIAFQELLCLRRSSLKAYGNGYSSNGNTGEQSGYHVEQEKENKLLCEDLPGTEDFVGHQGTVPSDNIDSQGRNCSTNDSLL
LANA-H2A inh – blocks KSHV LANA binding to histone H2A/H2B. cell-free LANA-H2A/H2B peptide, fluorescence polarization. inhibition, % (no concentration beside the values). 320,000 tested, 0.6% active. AID 2629; in the data active = inhibition mostly above about 10%, no sharp cut-off; inactive = mostly below about 6.7%;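 also: stock transfer was 7.5 nL into about 10 µL; 0% = median of vehicle wells and 100% = median of positive control wells; one replicate is shown; the record names a cut of 25% in any replicate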
Calb FLC – affects C. albicans growth with fluconazole; C. albicans CaCi-2 (fluconazole-resistant clinical isolate) + fluconazole, Alamar Blue growth, 48 h; growth inhibition, % (test concentration not listed); 300,000 tested, 0.57% active;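 active = most replicates above 75%; inconclusive = exactly half above 75%; inactive = most below 75%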;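 also: all wells also contain fluconazole at 8 µg/ml as a sub-toxic cotreatment; 0% = median of DMSO wells and 100% = median of geldanamycin control wells; wells of about 8 µL received 7.5 nL stock; the first replicate is given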
Vif A3G – inhibitors of Vif binding to APOBEC3G peptide, primary screen, biochemical, TR-FRET, GST-Vif 1-94, biotin-A3G peptide, dose response retest (AID 1117319). TR-FRET GST-Vif / biotin-A3G peptide binding; higher % means a stronger effect; test concentration not given here; strong numbers were not always called active. inhibition, %; hits with a dose series show IC50 in µM. 260,000 tested, 0.57% active;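 active = above the screen mean plus three standard deviations and confirmed in dose response; inconclusive = results disagree or hit not tested in dose response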;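 also: Vif residues 1-94 fused to GST binding biotinylated APOBEC3G peptide 110-148; 0% = full assay without inhibitor and 100% = GST in place of GST-Vif; retest series ran down from 100 µM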
ALR inh – blocks human ALR sulfhydryl oxidase activity | P55789 | purified ALR, DTT oxidation, H2O2 HRP-luminol luminescence | 290,000 tested, 3.8% active | inhibition, % (concentration not given with the values);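 active = mean and each replicate at 75% or more; inconclusive = only one of the two met; inactive = neither met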;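 also: stock transfer was 7.5 nL into about 7.5 µL; 0% = neutral wells and 100% = wells with inactivated enzyme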
Target sequence (P55789 whole entry, looked up): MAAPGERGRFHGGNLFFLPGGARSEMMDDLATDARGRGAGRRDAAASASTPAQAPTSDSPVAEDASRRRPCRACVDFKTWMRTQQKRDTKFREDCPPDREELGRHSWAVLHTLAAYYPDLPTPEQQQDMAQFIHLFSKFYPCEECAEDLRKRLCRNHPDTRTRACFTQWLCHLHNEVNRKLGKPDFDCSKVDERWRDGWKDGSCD
HNF4A DNA FP – change in binding of human HNF4 alpha to DNA | 360,000 tested, 0.3% active | activity change, % at 10 µM | HNF4a-FITC DNA binding, fluorescence polarization, 1 h | P41235; in the data active = activity change above about 30%, passing the limit was not always enough;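 also: controls were the assay level and a saturating level of protein; the project sought stronger binding though the title names inhibitors; some compounds called inactive have numbers as strong as hits; positive values seem to mean higher polarization but the record does not say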
Target sequence (P41235 whole entry, looked up): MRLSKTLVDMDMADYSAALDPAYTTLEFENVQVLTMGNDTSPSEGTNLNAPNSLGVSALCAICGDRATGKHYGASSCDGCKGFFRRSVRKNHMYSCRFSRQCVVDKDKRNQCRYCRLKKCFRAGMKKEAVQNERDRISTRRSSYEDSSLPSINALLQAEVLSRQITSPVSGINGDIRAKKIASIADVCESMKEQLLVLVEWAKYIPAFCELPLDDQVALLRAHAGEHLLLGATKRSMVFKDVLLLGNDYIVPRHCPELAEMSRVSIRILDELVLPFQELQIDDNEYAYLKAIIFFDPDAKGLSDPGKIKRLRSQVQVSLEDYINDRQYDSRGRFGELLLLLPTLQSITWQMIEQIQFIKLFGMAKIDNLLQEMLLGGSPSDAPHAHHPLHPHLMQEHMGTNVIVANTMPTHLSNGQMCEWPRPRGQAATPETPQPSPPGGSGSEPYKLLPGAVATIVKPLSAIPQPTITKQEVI
Numbers without * were called inactive; ? = inconclusive; / = not tested or not shown; & = joins results of further samples.

Compound	RanGTP-Imp inh	Beta2AR agonist	LANA-H2A inh	Calb FLC	Vif A3G	ALR inh	HNF4A DNA FP
Cc1cc(/C=N/O)c(C)n1-c1ccccc1	5.4	-2	-1.2	17	3%	/	-2.7
COc1cccc(C2C3=C(N=C4SCC(=O)N42)c2ccccc2CC3)c1OC (centres undefined)	2.1	1	3.7	?	0%	-19	-0.1
COc1cc([N+](=O)[O-])ccc1NC(=O)CCCOc1ccc(C)cc1	2.1	-5	11	1	7%	-9	1.7
CC(=O)Oc1ccc2c(=O)c(Oc3ccccc3)c(C)oc2c1OC(C)=O	1.5	3	-0.9	5	/	100*	1.4
CCCN1CCn2c3c(c4cc(Br)ccc42)CCCC31 (centres undefined)	3.0	-1	/	-13	2%	/	0.3
COc1ccccc1NC(=O)COC(=O)/C=C/c1ccccc1[N+](=O)[O-]	8.9	-3	/	3	5%	/	-0.2
COC(=O)c1ccccc1NC(=O)Cn1ccnc1	2.1	5	8.5	-2	2%	3	1.4
CN(C)S(=O)(=O)Oc1ccsc1C(=O)Nc1ccccc1Cl	-6.2	21	-3.5	12	5%	/	0.9
Cc1ccc2nc(SCC(=O)Nc3cccc4ccccc34)nc(=O)n2c1	0.6	-4	3.4	-9	-1%	-10	2.1
Cc1ccc(/C(C#N)=C\c2ccc(N3CCOCC3)o2)cc1	2.0	-38	0.0	12	13%	-20	80*
COc1ccc(S(=O)(=O)N2CCOCC2)cc1NC(=O)CN1C(=O)CN(C)C1=O	/	1	0.0	/	/	-4	2.0
CCN(CC)S(=O)(=O)c1cc(C(=O)OC(C)C(=O)NCc2ccco2)ccc1C (centres undefined)	/	-2	-2.7	/	/	10	1.2

ALR inh: entries above that show a hit
SMILES | RanGTP-Imp inh | Beta2AR agonist | LANA-H2A inh | Vif A3G | ALR inh | HNF4A DNA FP
CC(=O)Oc1ccc2c(=O)c(Oc3ccccc3)c(C)oc2c1OC(C)=O | 1.5 | 3 | -0.9 | / | 100* | 1.4

Next compounds follow.
Compound	RanGTP-Imp inh	Beta2AR agonist	LANA-H2A inh	Calb FLC	Vif A3G	ALR inh	HNF4A DNA FP
N#C/C(=C/c1cn(CC(=O)O)c2ccccc12)c1ccc(F)cc1	1.9	-2	2.8	-4	0%	44	-0.5
Cn1cc(S(=O)(=O)N2CCCC2)cc1C(=O)NCc1ccc(Cl)cc1	4.7	9	7.9	5	/	-2	2.9
COc1ccc(N)cc1S(=O)(=O)Nc1ccccc1Cl	4.1	1	5.1	1	/	4	-0.1
COc1cc(/C=N/n2cnc3scc(-c4cccs4)c3c2=O)cc(OC)c1OC	?	13	-2.9	-10	-4%	/	1.9
CCn1c(-c2cc(-c3cc(C)ccc3C)nc3ccccc23)n[nH]c1=S	3.6	-4	-5.0	1	/	-1	-0.9
Cc1ccc2[nH]c(=O)c(C(c3nnnn3CC3CCCO3)N3CCCc4ccccc43)cc2c1 (centres undefined)	-0.3	3	-2.3	16	?	/	-3.8
CC(C)Cc1ccc(CN2CCCC(NC(=O)CSc3nncn3C)C2)cc1 (centres undefined)	2.9	-3	1.3	-1	/	3	3.6
CN(C)C(=O)c1ccc(Nc2ncnc3sc4c(c23)CCCCC4)cc1	-3.6	-24	-6.7	3	/	-3	3.2
Cc1ccc(-c2cc(C(=O)N/N=C/c3ccoc3)c3ccccc3n2)cc1	/	3	4.3	-19	9%	-11	2.5
CCc1ccc2[nH]c(=O)c(CN(CCN3CCOCC3)C(=O)Nc3ccccc3F)cc2c1	3.8	-13	0.3	12	0%	0	-4.7
CNC(=O)c1ccc(CNC(=O)OCC(F)(F)F)cc1	10	4	-2.2	-8	0%	-1	0.0
C/C(=N\NC(=O)c1ccc(Cl)cc1)c1ccccn1	5.8	7	0.1	16	/	1	1.4
CN=C1S/C(=C\c2ccc(N3CCOCC3)c(F)c2)C(=O)N1C	0.5	-4	2.7	-3	-2%	0	-4.7
CCn1c(C(O)c2cccc(OC)c2OC)nc2ccccc21 (centres undefined)	2.6	-13	-5.7	-3	4%	-2	-1.3
CC(C)C(C(=O)NCC1CCCO1)N(C(=O)CNS(=O)(=O)c1ccccc1)c1ccc(F)cc1 (centres undefined)	8.1	5	-3.9	-17	/	9	0.3
CNC(=O)/C=C1\NC(C)(C)Cc2c1ccc1ccccc21	?	14	0.4	4	2%	/	-0.8
CC1CCCC(C)N1C(=O)COC(=O)c1ccc[nH]c1=O (centres undefined)	?	-4	-0.3	-3	8%	-6	3.0
CCN(CC)C(=O)COC(=O)C1=NN(c2cc(C)ccc2C)C(=O)CC1	4.0	2	-2.3	5	-5%	-7	2.9
O=C(Cn1c(C(F)(F)F)nc2ccccc21)NCCN1CCCC1	/	0	-1.7	-8	-4%	-23	-1.6
COc1ccccc1OCc1nc(Cc2ccc(Cl)cc2)no1	8.0	-1	-3.2	-2	-8%	-6	5.2
Cc1nn(-c2cccc(C(F)(F)F)c2)c(=O)c2noc(C)c12	-3.8	-2	4.9	-3	-3%	3	1.8
CN(C)c1nc(-c2ccccc2)nc(-c2ccc(Cl)cc2)c1C#N	4.4	1	-1.8	-10	-8%	-7	-2.1
CCOC(=O)Cn1c(CN(Cc2ccccc2)Cc2ccccc2)nc2c1c(=O)[nH]c(=O)n2C	4.5	7	-4.4	13	21%&-4%	-2	1.9
COc1ccc(/C=C(\NC(=O)c2ccco2)C(=O)NC(Cc2ccccc2)C(=O)O)cc1 (centres undefined)	0.5	-6	0.0	-2	/	11	-3.4

Gathered by group, those above with a furan ring, fused or not (four)
Compound	RanGTP-Imp inh	Beta2AR agonist	LANA-H2A inh	Calb FLC	Vif A3G	ALR inh	HNF4A DNA FP
Cc1ccc(/C(C#N)=C\c2ccc(N3CCOCC3)o2)cc1	2.0	-38	0.0	12	13%	-20	80*
CCN(CC)S(=O)(=O)c1cc(C(=O)OC(C)C(=O)NCc2ccco2)ccc1C (centres undefined)	/	-2	-2.7	/	/	10	1.2
Cc1ccc(-c2cc(C(=O)N/N=C/c3ccoc3)c3ccccc3n2)cc1	/	3	4.3	-19	9%	-11	2.5
COc1ccc(/C=C(\NC(=O)c2ccco2)C(=O)NC(Cc2ccccc2)C(=O)O)cc1 (centres undefined)	0.5	-6	0.0	-2	/	11	-3.4

(next part)
Compound	RanGTP-Imp inh	Beta2AR agonist	LANA-H2A inh	Calb FLC	Vif A3G	ALR inh	HNF4A DNA FP
COc1ccc(C(=O)NN=C2CCCC2)cc1OC	-2.9	6	-2.9	3	3%	43	2.7
COC(=O)[C@H](C(C)C)N(Cc1ccccc1)S(=O)(=O)CCNC1CCCC1	/	-8	/	/	2%	/	-3.1
N#C/C(=C\c1c[nH]c2ccccc12)C(=O)NC1CC1	3.6	-21	0.9	2	2%	-11	2.0
COC(=O)c1ccc(OCC(=O)c2ccc(C)c(C)c2)cc1	2.2	-1	0.4	16	-6%	-14	-0.1
Cc1ccc(CC(SCc2ccccc2)C(=O)O)cc1C (centres undefined)	3.7	-3	-3.2	-2	/	2	1.4
Cc1nc(NC(C)c2ccccc2)c2c3c(sc2n1)CCC3 (centres undefined)	3.2	19	2.6	-7	5%	30	-4.3
Cc1ccc(NC(=S)N/N=C/c2ccc([N+](=O)[O-])s2)cc1	2.7	4	-0.3	4	-11%	-11	9.1
O=C(COC(=O)c1cccc(S(=O)(=O)N2CCOCC2)c1)Nc1nc(-c2ccccc2Cl)cs1	-2.2	6	-2.8	-14	-7%	/	-3.7
CC1(C)C(C=C(Cl)Cl)C1C(=O)NC(O)C(=O)c1ccccc1 (centres undefined)	3.9	3	2.0	-33	-3%	-2	-0.9
CCn1nnnc1NCc1ccc(OCc2c(F)cccc2Cl)c(OC)c1	2.1	8	-3.3	10	-16%	/	3.9
CSCC[C@H](NC(=O)C1CCN(S(=O)(=O)c2ccc(C)cc2)CC1)C(=O)NCc1ccco1	-3.9	-1	-1.5	2	6%	-1	5.5
COc1ccc2oc(C(=O)OCC(=O)N(C)c3c(N)n(Cc4ccccc4)c(=O)[nH]c3=O)c(C)c2c1	-1.3	-5	-0.4	-3	-1%	-10	-3.5
O=C(NCCOc1cccc(Oc2ccccc2)c1)c1cc(-n2cnnc2)ccc1Cl	-5.0	-6	6.1	19	8%	3	-1.2
CC(=O)O[C@@]1(C)C[C@@H](O)[C@]2(O)C=CO[C@@H](O[C@@H]3O[C@H](CO)[C@@H](O)[C@H](O)[C@H]3O)[C@@H]21	/	-2	3.6	/	/	9	-1.9
COc1cc([C@@H]2CC=C(C(=O)O)CN2S(=O)(=O)c2ccc(C)cc2)cc(OC)c1OC	/	7	4.4	/	/	-3	5.2
Cc1ccc(NC(=S)Nc2cccc(S(=O)(=O)Nc3c(C)n(C)n(-c4ccccc4)c3=O)c2)cc1	-1.2	0	-1.8	-15	-8%	9	-0.2
COC(=O)c1cc(NC(=O)CN(C)Cc2ccccc2)cc(C(=O)OC)c1	-0.2	-1	1.5	17	-1%	2	2.3
Cc1ccn2c(Nc3ccc4c(c3)OCO4)c(-c3ccccn3)nc2c1	-1.6	-1	4.5	-23	?	58	-1.1
Cc1cc2oc(=O)cc(Cn3ccnc3)c2cc1O	-1.2	-7	-2.4	0	-1%	6	1.4
C=CCC(c1ccccc1F)N(CCN1CCOCC1)C(=O)Nc1cccc(Cl)c1 (centres undefined)	-4.3	6	-1.2	7	-6%	-5	-1.9
CCOC(=O)c1c(N)sc(C(=O)N2CCCC2)c1C	1.7	-10	-3.1	2	25%	11	0.5
Fc1cccc2sc(N3CCCCC3)nc12	3.2	1	-2.7	-14	-8%	-4	-0.5
Cc1cc(C)n(-c2nc3c(c(=O)n(C)c(=O)n3C)n2C)n1	-0.6	-2	8.1	6	-1%	-2	0.4
O=C(NC(=S)NCCC1=CCCCC1)c1ccccc1Br	0.2	7	0.9	-20	11%	-1	0.9
Cc1onc(-c2ccccc2)c1C(=O)Nc1ccc(N2CCOCC2)cc1	-1.2	-1	0.4	-6	3%	/	2.2
CCCCOc1ccc(C(=O)N2CCN(c3ccc(N4CCOCC4)nn3)CC2)cc1	0.4	4	-5.6	-15	11%	12	3.5
COC1(c2ccccc2)NC(=S)NN=C1c1ccccc1 (centres undefined)	0.5	-7	4.6	20	21%	9	0.0
CCC(C(=O)Nc1ccsc1C(=O)OC)c1ccccc1 (centres undefined)	0.0	3	-1.9	1	-4%	/	-1.5
Cc1c(/N=C/c2ccco2)n(Cc2ccccc2)c2ccccc12	3.9	2	0.8	-7	-3%	0	2.6
COc1cc(C2CC(=O)C3=C(C2)Nc2ncnn2C3c2cccs2)cc(OC)c1OC (centres undefined)	3.9	-4	2.9	2	/	-4	2.4
O=C(COc1ccccc1)N/N=C/c1ccc(O[C@@H]2O[C@H](CO)[C@@H](O)[C@H](O)[C@H]2O)cc1	5.6	1	-2.9	7	?	-18	2.2
COc1ccc(CN2CCOCC2)cc1OC	-1.5	3	1.6	3	3%	-16	-1.0
CCCCCC(=O)Nc1c(-c2cccs2)c(=O)c2ccccc2n1C	-2.0	-13	-4.9	6	5%	1	1.0
Cc1ccc2nc(N(CCCN(C)C)C(=O)c3cc4ccccc4oc3=O)sc2c1	1.6	-3	-4.8	-16	14%	-25	-1.7

Three entries already listed, arranged by SMILES length, descending.
Compound	RanGTP-Imp inh	Beta2AR agonist	LANA-H2A inh	Calb FLC	Vif A3G	ALR inh	HNF4A DNA FP
O=C(NCCOc1cccc(Oc2ccccc2)c1)c1cc(-n2cnnc2)ccc1Cl	-5.0	-6	6.1	19	8%	3	-1.2
Cc1ccc(-c2cc(C(=O)N/N=C/c3ccoc3)c3ccccc3n2)cc1	/	3	4.3	-19	9%	-11	2.5
Cc1cc2oc(=O)cc(Cn3ccnc3)c2cc1O	-1.2	-7	-2.4	0	-1%	6	1.4

From PubChem
